ClpP mod: qHTS Assay for Activators of ClpP; actives 1.9% (n = 340,000); AID 651965, 2013; Potency, µM (highest dose often 57.5 µM), for inactives: top-dose activity change, negative = active; ATP-dependent Clp protease proteolytic subunit (Bacillus subtilis (strain 168)), P80244; purified B. subtilis ClpP, FRET peptide cleavage, 20 min; active = well fitted falling curve with a large enough effect; inconclusive = small, poorly fitted or top-dose-only effect; inactive = no such curve, though single readings can be large or run the other way; also: potency is read from the fitted curve at half-maximal effect; the source files actives as falling curves though it sought activators and does not explain the sign; nearly all actives have a fitted effect of over 65% in size; many hits overshoot -100%
Target sequence (P80244 whole entry, looked up): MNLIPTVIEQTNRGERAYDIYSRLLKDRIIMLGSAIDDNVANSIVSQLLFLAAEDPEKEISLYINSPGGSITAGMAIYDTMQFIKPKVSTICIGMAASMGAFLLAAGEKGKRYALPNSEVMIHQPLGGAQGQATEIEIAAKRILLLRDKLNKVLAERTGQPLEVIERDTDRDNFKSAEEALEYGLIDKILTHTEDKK
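Purified B. subtilis ClpP, 10 microg/mL final in Tris/HCl pH8 with KCl, BSA, glycerol and Tween-20, cleaved an Abz/nitrotyrosine-quenched decapeptide. Fluorescence (ex 320, em 430) was read at 0 and 20 min at room temperature. Delta was normalized to 5.8 microM ADEP and DMSO/no-enzyme controls.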
Sfp inh: Sfp phosphopantetheinyl transferase inhibition; AID 1490; Biochemical Sfp PPTase activity, qHTS; actives 3.5% (n = 310,000); Potency, µM, for the others: max response, negative = inhibition, actives largely listed as inhibitors; active = well fitted inhibition curve with a large enough effect; inconclusive = small, poorly fitted or top-dose-only effect, or another doubt; inactive = no such curve, though single readings can be large or run the other way;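 also: the enzyme is Sfp with the accession as filed and its product quenches rhodamine fluorescence; potency is read from the fitted curve at half-maximal effect; 0% = enzyme reaction without inhibitor and -100% = no enzyme wells; top concentration of the series not given in the record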
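With Hepes-Na pH 7.6 buffer containing 10 mM MgCl2, Sfp (15 nM) modified BHQ-2-YbbR (12.5 uM) using rhodamine-CoA (5 uM). Two reads 30 minutes apart at 525/598 nm yielded each well's rate.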
D2 ag: agonists of human D2 dopamine receptor (beta-arrestin); DiscoveRx PathHunter D2 beta-arrestin, luminescence, 90 min; 100% = 57 uM dopamine signal; activation, % (concentration not given with the values); actives 0.084% (n = 360,000); AID 624465; in the data active = activation above about 40%; inconclusive = about 15% to 40%; inactive = below about 15%; also: compound concentration not given in the record; the text of the record calls up to 30% inactive
Target sequence (P14416 whole entry, looked up): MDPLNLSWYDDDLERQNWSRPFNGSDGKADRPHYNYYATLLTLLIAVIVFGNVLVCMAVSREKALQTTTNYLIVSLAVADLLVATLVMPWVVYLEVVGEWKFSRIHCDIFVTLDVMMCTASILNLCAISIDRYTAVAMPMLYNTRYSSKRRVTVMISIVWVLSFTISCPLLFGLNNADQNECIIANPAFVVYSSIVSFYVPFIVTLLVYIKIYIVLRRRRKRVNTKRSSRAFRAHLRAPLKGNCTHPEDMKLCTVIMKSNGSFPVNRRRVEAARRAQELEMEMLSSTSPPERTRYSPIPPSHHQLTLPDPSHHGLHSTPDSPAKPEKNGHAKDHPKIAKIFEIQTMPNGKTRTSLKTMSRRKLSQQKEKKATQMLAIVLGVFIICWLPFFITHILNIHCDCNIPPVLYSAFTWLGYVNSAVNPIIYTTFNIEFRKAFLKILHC
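DiscoveRx PathHunter D2 beta-arrestin cells (2,100/well) attached overnight, then compound-stimulated 90 min at 37 C in HBSS/10 mM HEPES/0.1% Tween-20 buffer; beta-galactosidase complementation read by luminescence after 1 h at ambient temperature. Dopamine 57 uM final (EC100) as control.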
gsp antag: antagonizes gsp, the McCune-Albright syndrome mutation; gsp-mutant cells, cAMP HTRF, 30 min; control for the full effect not named in the record; Potency, µM (top dose mostly 76.9 µM), for the others: at the highest dose activity change, negative = inhibition, usual class: inhibitors; actives 0.4% (n = 340,000); active = falling curve of any shape with a large fitted effect; inconclusive = falling curve, mostly with a smaller effect; inactive = flat or rising curve; cell line not stated here;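 also: intracellular cAMP measured with PDE inhibitor Ro 20-1724 present during compound exposure; potency is read from the fitted curve at half-maximal effect; % is scaled to controls: 0 for no effect and ±100 for the full control effect; nearly all actives have a fitted effect of over 65% in size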
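Cells in G418 medium, seeded 16-24 h, 37C; buffer exchange to DPBS + 1 mM CaCl2, 0.5 mM MgCl2, 0.05% BSA; cpds in DMSO + […] (300 uM stock), 30 min 37C; HTRF cAMP detection.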
PINK1 modulator: PINK1 expression modulation; PINK1 immunofluorescence, high-content cytometry, 24 h; Potency, µM (highest dose often 76.6 µM), for inactives: at the highest dose activation (PINK1 increase), actives largely listed as activators; actives 0.2% (n = 410,000); active = well fitted activation curve with a large enough effect; inconclusive = small, poorly fitted or top-dose-only effect; inactive = flat fitted curve, though single readings scatter; cell line not stated here;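 also: potency is read from the fitted curve at half-maximal effect; % of control where 0% means no effect; nearly all actives have a fitted effect of over 65% in size; a mitochondrial uncoupler was the plate control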
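A stable cell line was treated with compounds at 5 concentrations for 24 hours, with CCCP as control. PINK1 levels and mitochondrial localization were measured by immunofluorescence with mitochondrial, cell and nuclear markers after fixation, read by laser-scanning cytometry.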
gsp agonist: activates gsp, the McCune-Albright syndrome mutation. actives 0.13% (n = 340,000). AID 624287. Potency, µM (doses to about 76.9 µM), without a hit: at the highest dose activation (cAMP increase), actives largely listed as activators. gsp mutant cells, cAMP HTRF, 30 min; control for the full effect not named in the record; active = well fitted activation curve with a large enough effect; inconclusive = small, poorly fitted or top-dose-only effect, or another doubt; inactive = no such curve, though single readings can be large or run the other way; cell line not stated here;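 also: phosphodiesterase inhibitor Ro 20-1724 added with compounds to block cAMP breakdown; potency is read from the fitted curve at half-maximal effect; nearly all actives have a fitted effect of over 60% in size; about a fifth of the inactives were tested at one dose only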
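Cells in DMEM/10% FBS with G418 were pretreated with compounds in DMSO plus […] (300 uM stock) for 30 min at 37C. cAMP was measured by HTRF (cAMP-d2 plus anti-cAMP antibody-K) after 30 min at room temperature.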
Menin MLL FP FL: displaces fluorescein MLL peptide from human menin; Fluorescence polarization, fluorescein-MLL peptide displacement from menin; 290,000 tested, under 10 active; FP activity change, % at 61.4 µM; AID 1766; inconclusive = falling polarisation curve, or a change in total fluorescence; inactive = total fluorescence flat and polarisation flat or rising; no compound was filed as active; the % refers to the polarisation; negative = inhibition;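 also: % of control where 0% means no effect; inhibitors lower the polarisation; unlabelled MLL peptide was the positive control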
* marks the source's active call; other numbers are inactive results; ? = inconclusive; / = not tested or not shown; & = joins results of further samples; [ ] = dose if it differs, or a comment.

SMILES	ClpP mod	Sfp inh	D2 ag	gsp antag	PINK1 modulator	gsp agonist	Menin MLL FP FL
COC(=O)Nc1ccc(S(=O)(=O)N2CCCC(C(=O)NCC3CCCO3)C2)cc1 (centres undefined)	-1.3%	/	-2.3	4.3%	0.8%	9.9%	/
CN(CC(=O)O/N=C(\N)c1ccccn1)S(=O)(=O)c1ccc(Br)cc1	0.7%	?	-1.1	4.0%	-0.1%[38.3 µM]	?	-0.8
N#CCC(=O)Nc1ccc(C(=O)OC(C(=O)Nc2ccc([N+](=O)[O-])cc2Br)c2ccccc2)cc1 (centres undefined)	-1.1%	/	0.5	-14.7%	0.3%	-1.0%	/
Cc1ccc2nsnc2c1S(=O)(=O)N(Cc1ccco1)Cc1cc2cccc(C)c2[nH]c1=O	2.9%	-5.7%	-0.4	-7.6%	5.9%[38.3 µM]	-46.0%[inhibitor]	4.6
CC(=O)Nc1ccc(N2CCN(C(=O)c3cccs3)CC2)cc1	-0.8%	19.9%	0.6	5.6%	-2.2%	-1.5%	2.6
CN(CC(=O)Nc1ccc2c(c1)OCO2)S(=O)(=O)c1ccc(F)cc1	/	14.8%	5.4	2.4%	-1.2%	-51.6%[inhibitor]	-0.6
COC(=O)Cn1c(=NC(=O)C2COc3ccccc3O2)sc2cc(S(N)(=O)=O)ccc21 (centres undefined)	0.9%	13.0%	-6.1	-12.9%	-1.0%	-20.4%	7.6
COc1ccccc1NS(=O)(=O)c1ccc2oc(N)nc2c1	/	?	-2.4	11.7%	7.6%	-3.8%	-0.3
O=C(O)c1ccc(NC(=O)c2ccc3c(c2)C(=O)N(CC2CCCO2)C3=O)cc1 (centres undefined)	/	?	2.2	-4.4%	0.9%	-49.4%[inhibitor]	3.2
CCCOc1ccc(C(O)CCNC(CC(=O)O)c2ccccc2)cc1 (centres undefined)	-2.7%	9.9%	1.7	7.8%	1.2%	9.3%	-2.2
Nc1ncnc2c1ncn2[C@@H]1O[C@H](C(=O)N[C@H]2c3ccccc3C[C@H]2O)[C@@H](O)[C@H]1O	-3.0%	/	-4.5	/	0.3%	/	/
C/C(=N\NC(=O)c1c(Cl)c(C)nn1C)c1cccc(NC(=O)COc2ccccc2)c1	145.5%	14.2%	2.8	-16.9%	0.4%	-57.7%	1.6
Cc1[nH]n(-c2ccccc2)c(=O)c1C=NCc1ccncc1	/	4.9%	2.9	4.9%	-0.4%	5.7%[15.4 µM]	-2.1
CCOC(=O)c1nc(Nc2ccccc2)c2ccccc2n1	-0.8%	18.8%	-1.8	-4.6%	9.2%[38.3 µM]	24.8%	-1.1
CCN(CC(=O)Nc1ccc2c(c1)OCCO2)Cc1cc(=O)oc2c(C)c(C)ccc12	-1.4%	-2.5%	-1.0	-2.5%	0.4%	?	4.1
COC(=O)c1cccc(NC(=O)CCc2cc(OC)c(OC)c(OC)c2)c1	1.0%	-7.2%	-0.6	17.2%	0.9%	-45.4%	1.5
CCOC(=O)c1ccc(NC(=O)C(=O)NCC2(c3ccc(OC)cc3)CCOCC2)cc1	0.9%	20.5%	-2.0	-17.5%	4.6%	16.1%	0.7
O=C(NCC(O)c1ccccc1)c1cccc(S(=O)(=O)N2CCOCC2)c1 (centres undefined)	31.6µM*	18.2%	-0.3	4.3%	-4.3%	1.4%	1.7
CN1CCN(Cc2c(O)ccc3occ(C(=O)c4ccccc4)c23)CC1	-1.1%	8.2%	-0.8	4.8%	-1.3%	-0.4%	-1.1
CC(C)n1nc(C(=O)Nc2ccc(-n3cnnn3)cc2)c2ccccc2c1=O	/	/	0.5	-16.5%	11.7%	-16.9%	/
CN(C)C(=O)c1ccc(-c2ccc3ncnc(N4CCOCC4)c3c2)cc1	/	6.4%	/	/	1.5%	/	-8.9
O=C(NC1CCC1)C1CCC(=O)N(Cc2cccc(F)c2)C1 (centres undefined)	1.4%	13.4%	-4.5	4.2%	-0.7%	26.6%	/
CC(Cc1ccccc1)C(=O)N1CCN(C)CC1 (centres undefined)	0.5%	5.7%&8.9%	-0.3	9.4%	0.5%	/	-1.9&-1.4
CCOC(=O)C1=C(C)N(CCCC(=O)O)C(=O)NC1c1ccccc1 (centres undefined)	1.4%	/	-3.0	6.5%	1.6%	/	/
COc1ccccc1CC(=O)NC12CC3CC(CC(C3)C1)C2	-1.9%	15.0%	-3.0	-6.4%	0.8%	-6.5%[15.4 µM]	2.0
COc1ccc(S(=O)(=O)NCCN2CCOCC2)c(C)c1C	/	12.7%	-2.1	3.8%	1.7%	1.3%	-5.7
N#CC(Cc1ccc(OC(F)F)cc1)c1nc2ccccc2[nH]1 (centres undefined)	-3.6%	7.1%	-1.5	1.2%	-0.2%	-2.5%	6.1
Cc1ccc(NC(=O)c2cccc(Cl)c2)nc1	-7.8%	2.6%	-1.7	-0.8%	0.3%	-74.9%[inhibitor]	2.2
CCn1c(SCC(N)=O)nnc1C(C)C	/	19.5%	-4.0	19.6%	4.1%	-17.1%[15.4 µM]	0.3
Cc1nc2sc3c(O)cc(=O)[nH]c3c2c(C)c1C	?	-9.1%	-3.9	-3.8%	0.0%	?	-1.8
CC(C)(C)NC(=O)CN1C(=O)/C(=C/c2ccccc2)SC1=S	/	18.1%	-1.6	-6.3%	2.4%	-27.9%	1.6
CC(=O)CCC(=O)NCCc1ccccc1F	-0.3%	11.8%	-4.4	8.5%	-1.0%	20.0%	2.4
O=C(C1CCCN(S(=O)(=O)c2cccnc2)C1)N1CCn2c1nc1ccccc12 (centres undefined)	-2.9%	-2.6%	-1.1	2.8%	1.6%	-23.7%	0.3
CNC(=O)Nc1ccc(C2SCCS2)cc1	-0.7%	4.7%	-4.4	3.9%	1.5%	-8.8%[15.4 µM]	0.3
Cc1ccc(C)c(NS(=O)(=O)c2c(C)nn(C)c2C)c1	-1.3%	3.1%	-0.8	-12.0%	0.2%	-6.0%	-0.5
O=C(CN1CCN(c2ccccn2)CC1)Nc1ccc(F)cc1	-1.9%	79.4µM*	11.4	6.3%	3.1%	0.0%	0.4
COc1ccccc1-c1nnc(SC(C)C(=O)O)n1-c1ccccc1 (centres undefined)	-0.4%	13.3%	0.1	7.0%	0.6%	-26.2%	-5.1
CCC(C)Sc1nc(C)nc2c1c(=O)n(C)c(=O)n2C (centres undefined)	0.4%	-19.2%	-2.1	14.4%	0.7%	21.8%	-0.6
COc1cc(OC)cc(C(=O)Nc2cccc3ccccc23)c1	0.5%	9.2%	-4.5	-1.6%	1.8%	21.0%	-6.5
COc1cc(C(=O)OCC(=O)Nc2ccccc2C(=O)NC2CC2)c([N+](=O)[O-])cc1OC	-5.8%	/	-1.2	?	0.6%	-12.8%	/
COc1ccccc1NC(=O)CN(C)S(=O)(=O)c1cc(C)ccc1OC	-1.1%	20.3%	-3.9	-6.0%	-2.7%[38.3 µM]	9.4%	2.0
O=C(Nc1ccc(S(=O)(=O)N2CCOCC2)cc1)c1ccc2ncsc2c1	-0.7%	50.1µM*	-4.5	-5.1%	2.2%	22.5%	3.3
Cc1cc(C)c2c(=O)[nH]c(SCC(=O)c3ccc(F)c(C)c3)nc2n1	/	4.8%	-0.9	5.5%	-0.3%	-11.3%	-1.3
COc1ccc(C2C(C(=O)c3ccco3)=C(O)C(=O)N2Cc2cccnc2)cc1OC (centres undefined)	-7.2%	-9.5%	0.1	3.9%	/	6.3%	-1.7
CN(C)CCNC(=O)c1ccc(-c2cn3c(-c4ccc(Oc5ccccc5)cc4)cnc3cn2)cc1	5.0%	/	3.2	/	-0.4%	/	/
CCCn1ncc(CN2CCC(n3nccc3NC(=O)CCc3ccccc3)CC2)c1C	-0.6%	13.5%	-2.4	6.6%	0.4%	8.4%	0.0
COc1ccccc1-c1noc2ncnc(Nc3cccc(C)c3)c12	-13.3%	10.2%	-2.1	-21.5%	-0.5%	19.2%	3.2
CC(=O)Nc1cccc(NC(=O)c2cccc3cccnc23)c1	/	8.1%	2.6	-4.1%	0.8%	-1.1%[15.4 µM]	4.7
Cc1cc(NC(=O)Cn2c(=O)oc3ccccc32)no1	-1.2%	/	-3.1	13.2%	2.0%	3.2%	/
Cc1c(NC(=O)CN2C(=O)NC(C)(c3ccccc3Cl)C2=O)c(=O)n(-c2ccccc2)n1C (centres undefined)	0.6%	22.4%	-1.7	4.0%	1.7%	-9.6%[15.4 µM]	10.1
N#C/C(=C\c1cccc(O)c1)C(=O)N1CCCCC1	/	6.0%	8.1	-5.2%	0.1%	-2.3%	?
CC1CCCC(C)N1C(=O)COC(=O)c1ccc(S(=O)(=O)N(C)c2ccccc2)cc1 (centres undefined)	/	/	-1.6	-14.0%	-0.9%	8.0%	/
O=C(CCNC(=O)c1ccc(Br)cc1)OCc1ccccc1Cl	-0.2%	/	-3.4	5.0%	1.1%	?	/
Nn1c(COc2ccccc2)nnc1SC(F)F	2.9%	12.0%	-2.9	8.1%	3.8%[38.3 µM]	-4.3%	6.7
CC1=C(C(=O)N(C)C)CC(CC(=O)NCCN2CCOCC2)C(=O)N1Cc1ccc(F)cc1 (centres undefined)	1.3%	/	-8.1	/	0.7%	-33.6%[inhibitor]	/
COc1c(F)c(F)c(C(=O)Nc2ccc(NC(=O)Cc3ccccc3)cc2)c(F)c1F	-7.4%	11.7%	1.0	6.6%	1.9%	-19.2%	3.1
Cc1ccc(S(=O)(=O)N(C)C)cc1NC(=O)COC(=O)c1ccc2c(c1)NC(=O)CS2	/	5.6%	5.7	-0.7%	1.7%	-30.6%[15.4 µM]	-0.4
C#Cc1ccc([C@@H]2C=C(C(=O)NCc3ccccc3)O[C@H](OCc3ccc(CO)cc3)C2)cc1	-3.1%	12.6%	-1.9	-17.3%	-0.3%	/	-0.4
COc1ccc(NC(=O)c2cc(OC)c(OC)c(OC)c2)cn1	0.3%	3.1%	-0.8	8.8%	-4.9%[38.3 µM]	-24.7%	0.4
CCOc1ccccc1C(=O)N[C@H](C(=O)OCc1csc(CC(=O)Nc2ccc(C)cc2)n1)C(C)C	/	/	4.3	-29.3%	1.8%	-3.8%	/

From PubChem

An unsorted share of the library; any-hit rate near 5.1%.
